# Assay outcomes as filed in PubChem.
# KCNQ2 pot: KCNQ2 (rat) channel potentiation. B-score at 10 µM. CHO-K1 KCNQ2, FluxOR thallium flux fluorescence; stronger effect = higher value. 310,000 tested, 0.54% active;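 active = fluorescence ratio B-score at least 3 SD of library B-scores, with initial fluorescence B-score within 3 SD, cut at about 5.3 in these data; same plate scores as AID 2156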;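 note: B-score of peak minus minimum over baseline fluorescence ratio after K+ and Tl+ stimulus; positive B-score means potentiation of KCNQ2 with more thallium influx and brighter signal; only the inactives scoring about 0 or higher are listed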
# Target sequence (O88943 whole entry, looked up): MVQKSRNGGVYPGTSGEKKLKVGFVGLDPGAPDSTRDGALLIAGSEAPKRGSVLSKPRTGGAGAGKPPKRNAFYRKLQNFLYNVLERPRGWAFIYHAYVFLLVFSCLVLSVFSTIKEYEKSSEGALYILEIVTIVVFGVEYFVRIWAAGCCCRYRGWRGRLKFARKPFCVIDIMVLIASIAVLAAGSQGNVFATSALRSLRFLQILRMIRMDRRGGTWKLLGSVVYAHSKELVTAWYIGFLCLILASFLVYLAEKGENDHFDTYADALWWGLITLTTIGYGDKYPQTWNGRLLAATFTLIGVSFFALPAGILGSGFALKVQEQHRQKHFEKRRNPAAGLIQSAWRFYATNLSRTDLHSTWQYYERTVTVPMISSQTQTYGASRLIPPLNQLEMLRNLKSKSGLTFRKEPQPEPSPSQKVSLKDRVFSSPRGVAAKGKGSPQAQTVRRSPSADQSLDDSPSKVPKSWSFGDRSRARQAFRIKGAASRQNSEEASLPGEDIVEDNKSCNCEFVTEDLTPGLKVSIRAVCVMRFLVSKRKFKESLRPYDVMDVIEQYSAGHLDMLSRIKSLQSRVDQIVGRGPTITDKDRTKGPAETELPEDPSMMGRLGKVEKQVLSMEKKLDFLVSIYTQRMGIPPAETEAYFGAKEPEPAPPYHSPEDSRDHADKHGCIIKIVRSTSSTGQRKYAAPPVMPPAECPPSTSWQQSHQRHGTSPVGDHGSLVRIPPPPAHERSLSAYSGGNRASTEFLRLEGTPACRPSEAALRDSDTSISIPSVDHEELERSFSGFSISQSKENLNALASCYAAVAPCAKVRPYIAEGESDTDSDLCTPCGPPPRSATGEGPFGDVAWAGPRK
# KCNQ2 pot baseline: second read-out of KCNQ2 pot, no call of its own (marks repeat the call); B-score; compound at 10 µM; measured here: initial fluorescence intensity artifact check;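 brightness before thallium and not channel activity; 0 = typical well and far values either way flag optical interference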
# The depositor's hits bear a star. These rows are one share of the data, so the mix of outcomes need not match the whole.
SMILES,KCNQ2 pot,KCNQ2 pot baseline
CCOC(=O)c1cc(CC)sc1N1C(=O)CC(Sc2ccccc2C(=O)O)C1=O (stereo unspecified),0.13,-2.01
Cc1nc2c(C(F)(F)F)cccc2c2c1CCS2,0.21,1.24
C/C(=N/OCO/N=C(\C)c1ccccc1F)c1ccccc1F,0.96,-0.55
O=S(=O)(c1ccc2c(c1)OCCCO2)N1CCNCC1,0.24,0.02
CCOC(=O)CSc1nc(N)c(C#N)c(CC(C)C)c1C#N,0.2,-1.64
Cc1cc(-c2nnc(SCC(=O)c3ccc(Cl)cc3)o2)no1,1.21,-1.51
Cc1cc(=O)oc2c(CN3CCC(C)CC3)c(O)c(Cl)cc12,0.87,-2.15
O=C(NC1CCCCC1)C(c1ccc(F)cc1)N(Cc1cccs1)C(=O)CN1C(=O)c2ccccc2S1(=O)=O (stereo unspecified),0.6,-0.5
O=C(O)/C=C/C(=O)N(CC1CCCO1)C1CC(=O)N(c2c(Cl)cccc2Cl)C1=O (stereo unspecified),0.01,-0.29
Oc1ccc(C=NC2CCCCC2)cc1,1.1,-0.47
O=C(Nc1nc(-c2ccc(Cl)s2)cs1)c1ccco1,0.23,-1.31
Cc1ccccc1C(NC(N)=O)c1ccccc1 (stereo unspecified),1.37,-0.28
Cc1nn(C)c(C(=O)Nc2c(C)nn(Cc3c(F)c(F)c(F)c(F)c3F)c2C)c1Br,1.36,-0.81
CCc1nc(SCC(=O)NC2CCCC2)c2oc3ccccc3c2n1,0.57,-0.23
O=C(NCCCC1CCCC1)C1CCC(=O)N(Cc2cccc(C(F)(F)F)c2)C1 (stereo unspecified),0.16,0
O=C(CCC(=O)NNc1nc2ccccc2c2nc(-c3ccccc3)nn12)NCCCN1CCCC1=O,0.59,0.05
COc1cc2c(cc1OC)/C(=C/C(=O)c1ccc([N+](=O)[O-])c(C)c1)NCC2,1.34,0.7
CC12CCC(C(=O)Nc3cc(F)ccc3F)(CC1=O)C2(C)C (stereo unspecified),0.01,0.79
CN(C)/C=N/S(=O)(=O)c1cccn1-c1ncc(C(F)(F)F)cc1Cl,2.19,-0.39
Cc1cc2nc(CS(=O)(=O)c3ccccc3)cc(=O)n2[nH]1,0.04,1.31
Cc1ccc(C(=O)NCc2ccco2)cc1S(=O)(=O)N1CCOCC1,1.29,-1.66
O=C(O)CCn1[nH]c(=O)ccc1=O,0.34,-0.03
Cc1cccc(C(=O)OC(C)CN2CCN(C)CC2)c1 (stereo unspecified),1.21,-1.04
CCC(=O)Nc1nc2c(OC)ccc(OC)c2s1,0.54,0.5
CS(=O)(=O)N1CCN(c2ccc([N+](=O)[O-])cc2F)CC1,2.92,-0.84
CC1CCCCC1NC(=O)c1ccc2c(c1)[nH]c(=O)n2C1CCCC1 (stereo unspecified),1.49,0.13
O=C(CSc1nnc(CNc2ccccc2)o1)c1ccc2c(c1)OCCO2,0.71,-0.17
Nc1cc2c(cc1C(=O)c1ccccc1F)OCCO2,0.93,-0.25
COc1ccc(-c2oc3ccc(-c4cc(OC)c(OC)c(OC)c4)cc3c2C#Cc2ccsc2)cc1,1.03,-0.36
COc1ccc(C(=O)NN2C(=O)C3C4C=CC(O4)C3C2=O)cc1 (stereo unspecified),0.02,0.23
CN1CCc2c(sc3nc(NN)n(-c4ccc(Cl)cc4)c(=O)c23)C1,0.01,0.66
CC(C)c1ccccc1NS(=O)(=O)c1cccs1,0.4,-1.75
Cc1ccc(Nc2nc3nonc3[nH]c2=O)cc1,2.85,-1.65
O=C(O)CC(Cc1ccc(Br)cc1)C(=O)Nc1ccccc1 (stereo unspecified),0.52,-0.38
CC(NS(C)(=O)=O)C(c1cccs1)N1CCN(c2ccccc2)CC1 (stereo unspecified),1.19,0.07
CCn1ncc(Br)c1C(=O)Nc1ccc(F)cc1F,0.93,-1.37
CC1(C)CC(=O)C(C=NCCN2CCN(C(=O)c3ccc(Br)cc3)CC2)=C(O)C1,0.17,-0.68
COC(=O)[C@@]12CCCN1[C@H](c1ccc(-c3ccc4c(c3)OCO4)c(OC)c1)[C@H]1C(=O)N(C)C(=O)[C@H]12,0.04,-1.96
O=c1oc2ccccc2cc1-c1nc(-c2ccccc2)no1,1.1,0.16
CCN(CC)CCNC(=O)c1ccc(NC(=O)c2cccc(-n3cnnn3)c2)cc1,0.31,0.68
COc1ccccc1NC(=O)NCCN1CCN(C(=O)Nc2ccccc2OC)CC1,0.06,-0.25
Cc1nc2c(C)cccn2c(=O)c1NC(=O)c1cccs1,1.69,-0.88
Cc1[nH]c2ccccc2c1/C=N/Nc1nc(Nc2ccccc2)nc(N2CCOCC2)n1,2.28,-0.01
O=C(Cc1ccc(F)cc1)N/N=C/c1ccncc1,1.06,0.01
NC(=S)NNC(=O)c1cccc(Cl)c1,4.22,-0.12
CCc1ccc2[nH]c(=O)c(C(c3nnnn3CC3CCCO3)N3CCCc4ccccc43)cc2c1 (stereo unspecified),7.24*,-1.68*
CCOC(=O)c1ccccc1N=N/C(C(C)=O)=C(/C)O,0.88,0.93
Cc1cccc(NC(=O)c2sc(Cl)nc2C)c1C,0.82,0.02
COc1ccc(-n2nnnc2CNC(=O)C(=O)c2c[nH]c3ccccc23)cc1,0.63,0.58
COc1cccc(CN2CC(C(=O)NC3CCC3)CCC2=O)c1 (stereo unspecified),0.14,0.03
Cc1c(NC(=O)c2ccc(S(=O)(=O)N3CCOCC3)cc2)c(=O)n(-c2ccccc2)n1C,1.69,-0.41
COC(=O)C(C)(C)ONC(=O)Nc1ccc(Br)cc1,0.39,1.06
COc1ccccc1NC(=O)Nc1ccc(NC(=O)c2ccccc2O)cc1,1.42,-1.82
CCOC(=O)C(NC(=O)C1C(C)N1S(=O)(=O)c1ccc(C)cc1)C(=O)OCC (stereo unspecified),0.05,0.16
C/C(Cc1ccccc1)=N\NC(=O)CNC(=O)c1ccc(Br)cc1,1.44,0.9
COc1ccccc1CNC(=O)CC1C(=O)NCCN1C1Cc2ccccc2C1 (stereo unspecified),0.23,0.58
NC(=S)n1[nH]c(-c2ccc([N+](=O)[O-])cc2)c(N=Nc2cccc([N+](=O)[O-])c2)c1=O,0.25,-0.04
O=C(COC(=O)c1ccccc1NC(=O)c1ccco1)Nc1ccc2c(c1)OC(F)(F)O2,0.87,-0.04
Cc1nc2ccccc2nc1OCC(=O)Nc1ccc2ccccc2c1,0.47,0.55
CCOc1ccc(-n2c(-c3ccc(Cl)cc3)c[n+]3c2SCC3)cc1,1.06,0.48
# The listing continues:
SMILES,KCNQ2 pot,KCNQ2 pot baseline
C=C(C)Cn1c(N2CCC(Cc3ccccc3)CC2)nc2c1c(=O)[nH]c(=O)n2C,1.35,-0.38
COc1ccc(N2CC(C(=O)Nc3ccc4c(c3)OCO4)CC2=O)cc1 (stereo unspecified),2.06,-0.01
COc1cccc(C(=O)Nc2nc3ccccc3s2)c1,2.03,0.31
COc1cc(-c2cc(-c3ccccc3)nc(SCC(=O)Nc3nccs3)c2C#N)cc(OC)c1OC,0.92,1.56
CCOc1ccccc1C(C(=O)NC1CCCCC1)N(C(=O)c1csnn1)C1CC1 (stereo unspecified),1.63,-0.79
COc1ccc(-c2cc(C(F)(F)F)nc(SCC(=O)NCc3cnn(C)c3C)n2)cc1OC,0.98,-0.64
O=C(NCC1CCCCC1)c1ccc(Br)o1,5.04,0.15
O=S(=O)(NCCc1ccccc1)c1cccs1,1.91,-2.93
CCCCNC(=O)C(=O)c1ccccc1NC(C)=O,1.19,-0.3
C=CCNC(=S)N1CCOCC1,0.56,-0.02
COC(=O)CC(NC(=O)c1ccco1)c1ccc(C(C)C)cc1 (stereo unspecified),1.89,0.6
Cc1nnc(SCc2nc3sc4c(c3c(=O)[nH]2)CCCC4)n(N)c1=O,0.32,1.26
Cc1ccc(CNC(=O)CCS(=O)(=O)c2cc3c(cc2Cl)NC(=O)CO3)o1,0.27,0.25
CC1CN(CC(O)COC2CCC(C(C)(C)C)CC2)CC(C)O1 (stereo unspecified),2.57,0.81
Cc1ccc(CNC(=O)CS(=O)Cc2nc(-c3ccccc3C)oc2C)cc1 (stereo unspecified),2.35,2.9
C/C(=N\NC(=O)C1CC1)c1ccc(OC(F)F)cc1,0.83,-0.86
Cc1ccsc1/C=N/Nc1nc2ccccc2s1,0.73,-0.76
COc1ccc(C(=O)NNC(=O)Cc2nc3nc(C)cc(C)n3n2)cc1,0.08,0.34
CCN1C(=O)c2cccc3c(S(=O)(=O)Nc4ccccc4O)ccc1c23,1.29,0.86
CC(=O)Nc1ccc(SCC(=O)c2cc(C)n(-c3ccccc3F)c2C)cc1,2.12,-2.24
CN(CC(=O)Nc1cccc(F)c1)C(=O)COc1cccc2c1OC(C)(C)C2,2.43,-0.41
COc1ccc(CNC(=O)[C@@H](NC(=O)C2CCN(S(=O)(=O)c3ccccc3)CC2)C(C)C)cc1,0.67,-0.68
CC(C)CCC(C(=O)O)C(C)CC(=O)Nc1ccn(-c2ccccc2)n1 (stereo unspecified),0.92,-1.14
O=C(CN(C(=O)c1csnn1)c1cccc2c1CCCC2)NCc1ccccc1,0.38,-0.87
Cc1ccc(S(=O)(=O)N(C)C)cc1NC(=O)C1CCCN(C(=O)c2ccc(Cl)cc2)C1 (stereo unspecified),0.47,-0.02
CCOC(=O)c1ccc(N2C(=O)CC(Sc3nc(O)c(CC)c(=O)[nH]3)C2=O)cc1 (stereo unspecified),0.04,-0.01
COc1ccc(S(=O)(=O)NCc2cccnc2)c2ccccc12,0.88,0.2
O=C(NCC(=O)N(c1cccnc1)C(C(=O)NC1CCCC1)c1cccs1)c1cccs1 (stereo unspecified),0.78,1.71
Oc1ccc(Cl)cc1CNCC1CCCO1 (stereo unspecified),1.58,-3.86
N#Cc1nc(Cl)c(Cl)c(NN)c1Cl,0.13,0.03
Cn1nc(-c2ccc(Cl)cc2)cc1NC(=O)Nc1ccccc1,0.02,-0.02
O=C(NCc1cc(C(F)(F)F)cc(C(F)(F)F)c1)C1CC(c2cccc([N+](=O)[O-])c2)=NO1 (stereo unspecified),0.02,0.14
C=C1C(O)C[C@H]2C(=C)CCC3[C@H](OC(=O)[C@]3(O)CO)[C@@H]12 (stereo partly specified),0.28,0.21
COC(=O)COc1ccc(=O)n(-c2ccccc2)n1,0.53,0.19
Cc1ccc(CNC(=O)CN(Cc2cccs2)C(=O)C2(C)CC(=O)N=C3C=CC=CN32)cc1 (stereo unspecified),1.77,-1.66
Cn1nnnc1SCCNCc1cccc2ccccc12,1.59,0
CCCOc1ccc(N2CC(C(=O)Nc3ccccn3)CC2=O)cc1 (stereo unspecified),0.42,0.04
C/C(=N\n1c(C)cc(C)c(C#N)c1=O)c1cccs1,0.18,0.85
Cc1cc(N/N=C/c2ccccc2[N+](=O)[O-])nc(-n2nc(C)cc2C)n1,5.42*,-2.57*
O=C(CNC(=O)c1ccc2c(c1)S(=O)(=O)N=C1CCCCCN12)Nc1ccc(F)c(F)c1,0.6,1.13
CC(C)CC(NC(=O)c1ccc(Cl)cc1Cl)C(=O)O (stereo unspecified),0.8,0.15
C/C(=N\NS(=O)(=O)c1ccc(C)cc1)c1ccc(C)s1,1.19,2.29
O=C(O)/C=C/c1coc2ccccc2c1=O,0.04,-0.02
Cc1nc2c(C)cccn2c(=O)c1NC(=O)COc1ccccc1,0.34,1.49
Nc1nonc1-n1nnc(C(=O)N/N=C/c2ccc(OCc3ccccc3F)cc2)c1CNc1ccccc1,0.03,-1.63
Cc1ccc(NS(=O)(=O)c2ccc3oc(=O)ccc3c2)cc1Cl,0.11,-1.76
C/C(=N\NC(=O)c1ccc(CSc2nncn2C)cc1)c1ccc2ccccc2c1,0.17,1.35
Cc1cccc(N(C(=O)CCC(=O)Nc2cc(C)on2)C(C(=O)NC2CCCC2)c2ccc(C)o2)c1 (stereo unspecified),0.73,0.47
Cc1nc(C(=O)NNC(=O)c2cccc(Cl)c2)c(C(F)(F)F)o1,0.31,0.45
O=C(NCc1cccs1)C1CCC(CNS(=O)(=O)c2ccccc2)CC1 (stereo unspecified),0.03,0.53
CC(=O)c1ccc2c(c1)OCCOCCOCCOCCO2,0.21,-1.34
COCCNC(=O)c1ccccc1NS(=O)(=O)c1ccc(C)c([N+](=O)[O-])c1,0.93,0.07

# Grouped by structure: those above containing a thiophene ring, fused or not (16)
SMILES,KCNQ2 pot,KCNQ2 pot baseline
CCOC(=O)c1cc(CC)sc1N1C(=O)CC(Sc2ccccc2C(=O)O)C1=O (stereo unspecified),0.13,-2.01
O=C(NC1CCCCC1)C(c1ccc(F)cc1)N(Cc1cccs1)C(=O)CN1C(=O)c2ccccc2S1(=O)=O (stereo unspecified),0.6,-0.5
O=C(Nc1nc(-c2ccc(Cl)s2)cs1)c1ccco1,0.23,-1.31
COc1ccc(-c2oc3ccc(-c4cc(OC)c(OC)c(OC)c4)cc3c2C#Cc2ccsc2)cc1,1.03,-0.36
CN1CCc2c(sc3nc(NN)n(-c4ccc(Cl)cc4)c(=O)c23)C1,0.01,0.66
CC(C)c1ccccc1NS(=O)(=O)c1cccs1,0.4,-1.75
CC(NS(C)(=O)=O)C(c1cccs1)N1CCN(c2ccccc2)CC1 (stereo unspecified),1.19,0.07
Cc1nc2c(C)cccn2c(=O)c1NC(=O)c1cccs1,1.69,-0.88
O=S(=O)(NCCc1ccccc1)c1cccs1,1.91,-2.93
Cc1nnc(SCc2nc3sc4c(c3c(=O)[nH]2)CCCC4)n(N)c1=O,0.32,1.26
Cc1ccsc1/C=N/Nc1nc2ccccc2s1,0.73,-0.76
O=C(NCC(=O)N(c1cccnc1)C(C(=O)NC1CCCC1)c1cccs1)c1cccs1 (stereo unspecified),0.78,1.71
Cc1ccc(CNC(=O)CN(Cc2cccs2)C(=O)C2(C)CC(=O)N=C3C=CC=CN32)cc1 (stereo unspecified),1.77,-1.66
C/C(=N\n1c(C)cc(C)c(C#N)c1=O)c1cccs1,0.18,0.85
C/C(=N\NS(=O)(=O)c1ccc(C)cc1)c1ccc(C)s1,1.19,2.29
O=C(NCc1cccs1)C1CCC(CNS(=O)(=O)c2ccccc2)CC1 (stereo unspecified),0.03,0.53
